PTHR1 ag – activates the human parathyroid hormone receptor PTHR1 | AID 743266 | HEK293 GP2 PTHR1 cells, GloSensor cAMP luminescence, 1 h | 410,000 tested, 0.075% active | Potency, µM (titrated, usually from 115 µM), without a hit: top-dose activation, hits mostly activators; further: nearly all actives have a fitted effect of over 55% in size; some results filed as inactive show a strong effect at the top dose; inactives centre near -15; many of its hits are not listed in these tables
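HEK-293-derived GP2 cells expressing PTHR1 and a GloSensor cAMP reporter, 3,000/well, plated overnight, given luciferin plus IBMX (each 0.5 mM as added) for 1 h at 37 °C, then compound for 1 h at 37 °C. Luminescence was read after 15 min at room temperature.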
TDP-43 yeast inh – rescues yeast growth from TDP-43 toxicity; TDP-43 expressing yeast growth rescue, BacTiter-Glo, 24 h; Potency, µM (titrated, usually from 46.1 µM), for the others: at the top dose growth rescue (activation), hits mostly activators; 410,000 tested, 1.8% active; AID 652104; further: % of control where 0% means no effect; nearly all actives have a fitted effect of over 50% in size
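Readout is BacTiter-Glo luminescence of cell growth, so inhibitors register as activators. TDP-43-expressing yeast at OD600=0.02 in galactose medium, after raffinose pregrowth to mid-log, were incubated with compound for 24 hr at 30 deg C.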
aSyn rescue – inhibitors of alpha-synuclein toxicity in yeast | Yeast expressing alpha-synuclein, growth rescue, BacTiter-Glo, 24 h | Potency, µM (top dose mostly 46.1 µM), without a hit: top-dose growth rescue (activation), most hits filed as activators | 370,000 tested, 0.14% active; further: % of control where 0% means no effect; nearly all actives have a fitted effect of over 65% in size
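Readout is rescue of growth in alpha-synuclein-expressing yeast, so inhibitors of toxicity appear as activators. Growth after 24 hr at 30 deg C in galactose medium is quantified by luminescence.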
HEK293 tox – cytotoxicity counter-screen for GLP-1 receptor inverse agonists; HEK293 cAMP-luciferase reporter cells, luminescence, 24 h; Potency, µM (highest dose often 38.3 µM), for the others: at the top dose activity change, negative = inhibition, actives largely listed as inhibitors; 410,000 tested, 0.13% active; AID 624418;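 further: loss of luciferase light is scored as toxicity; on the % scale 0 is the no-effect control and ±100 the full control effect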
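MLSMR compounds, 24 hr on cells at 37 deg C/5% CO2; luminescence after luciferase reagent (12 min RT). Inhibition counted as the undesired cytotoxic outcome.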
KB-V1 MDR tox – kills drug-selected multidrug resistant KB-V1 cells | KB-V1 MDR cells viability, CellTiter-Glo, 72 h | AID 1347076 | Potency, µM (doses to about 46.1 µM), for inactives: at the top dose activity change, negative = cytotoxicity, most hits filed as cytotoxic | 400,000 tested, 3.4% active; further: on the % scale 0 is the no-effect control and ±100 the full control effect; nearly all actives have a fitted effect of over 60% in size
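Potencies derive from concentration-effect curves fitted to normalized luminescence (CellTiter-Glo) of KB-V1 cells treated for 72 h at 37 degrees C in phenol-red-free DMEM containing 10% FBS.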
GLP1R inv ag – GLP-1 receptor (human) inverse agonism; 410,000 tested, 1.6% active; AID 624417; P43220; HEK293 GLP-1R CRE-luciferase, luminescence, 24 h; GLP-1R form is constitutively active; Potency, µM (doses to about 38.3 µM), for the others: top-dose activity change, negative = inhibition, usual class: inhibitors; further: on the % scale 0 is the no-effect control and ±100 the full control effect; nearly all actives have a fitted effect of over 55% in size
Target sequence (P43220 whole entry, looked up): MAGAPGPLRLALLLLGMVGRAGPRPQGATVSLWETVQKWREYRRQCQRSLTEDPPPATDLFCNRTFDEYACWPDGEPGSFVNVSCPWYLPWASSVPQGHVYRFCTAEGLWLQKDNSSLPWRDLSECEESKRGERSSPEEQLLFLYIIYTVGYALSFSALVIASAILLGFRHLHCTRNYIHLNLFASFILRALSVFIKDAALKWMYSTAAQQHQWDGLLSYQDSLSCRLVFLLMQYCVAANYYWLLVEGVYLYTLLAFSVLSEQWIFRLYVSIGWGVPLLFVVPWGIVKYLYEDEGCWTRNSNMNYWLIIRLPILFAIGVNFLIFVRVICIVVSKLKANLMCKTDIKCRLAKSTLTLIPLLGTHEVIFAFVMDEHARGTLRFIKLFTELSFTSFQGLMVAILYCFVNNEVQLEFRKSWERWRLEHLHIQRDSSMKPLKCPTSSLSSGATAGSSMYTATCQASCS
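Readout was luciferase luminescence, measured 12 min after detection reagent at room temperature. Beforehand, GLP-1R reporter HEK293 cells had sat 12 h, then received compounds for 24 hr at 37 deg C.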
GLP-1R agonist – GLP-1 receptor (human) agonism | P43220 | HEK293 GLP-1R CRE-luciferase, luminescence, 4-6 h; cells express a hypersensitive GLP-1R form | Potency, µM (series often up to 45.6 µM), without a hit: at the highest dose activation, usual class: activators | 380,000 tested, 0.007% active | AID 624172; further: % of control where 0% means no effect
Starred values were filed as active, the others as inactive; & = joins results of further samples; [ ] = another dose, or the depositor's remark. The call rests on the fitted dose curve; in most records, active means well fitted curve in the direction sought with a large enough effect; inconclusive means small, poorly fitted or top-dose-only effect, or another doubt; inactive means no such curve, though single readings can be large; an effect the other way counts as inactive or inconclusive. Potency means the concentration at half of the fitted maximal effect. A portion of the library; the hit share may differ from the screen's.

For COc1cc2c(c(OC)c1OC)-c1ccc(OC)c(=O)cc1[C@@H](NC(C)=O)CC2 the results were PTHR1 ag -47%, TDP-43 yeast inh 12%, aSyn rescue 0%&3%, HEK293 tox -27%, KB-V1 MDR tox 7.3µM*, GLP1R inv ag -79% and GLP-1R agonist 9%&-6%.
`CC(C)(C)NC(=O)[C@@H]1C[C@@H]2CCCC[C@@H]2CN1C[C@@H](O)[C@H](Cc1ccccc1)NC(=O)[C@H](CC(N)=O)NC(=O)c1ccc2ccccc2n1` gave PTHR1 ag 7%, TDP-43 yeast inh 13%&-6%, aSyn rescue 3%&2%, HEK293 tox -13%&-10%, KB-V1 MDR tox -2%&-8%, GLP1R inv ag inconclusive and GLP-1R agonist -4%&-1%&-5%.
Screening N[C@H](CO)C(=O)O returned aSyn rescue -4% and GLP-1R agonist 16%.
For C[C@@H]1C[C@H]2[C@@H]3CCC4=CC(=O)C=C[C@]4(C)[C@@]3(F)[C@@H](O)C[C@]2(C)[C@@]1(O)C(=O)COP(=O)(O)O the results were PTHR1 ag -3%, TDP-43 yeast inh 11%, aSyn rescue 1%, HEK293 tox 15%, KB-V1 MDR tox 3%, GLP1R inv ag -22% and GLP-1R agonist -2%.
For CC(=O)OCC(=O)NCCCOc1cccc(CN2CCCCC2)c1 the results were PTHR1 ag inactive, TDP-43 yeast inh 15%, aSyn rescue -3%, HEK293 tox 2%, KB-V1 MDR tox 15%, GLP1R inv ag 5% and GLP-1R agonist 0%&5%.
CCN(CC)CCNC(=O)c1cc(Br)c(N)cc1OC was read as PTHR1 ag -23%, TDP-43 yeast inh 3%, aSyn rescue -1%, HEK293 tox 0%, KB-V1 MDR tox -15%, GLP1R inv ag 1% and GLP-1R agonist 1%&-3%.
For Cc1ccc2c(c1)c1c3n2CCN[C@H]3CCC1 the results were GLP-1R agonist 24%.
CN1CCN(c2c(F)cc3c(=O)c(C(=O)O)cn(CCF)c3c2F)CC1 was read as GLP-1R agonist -1%.
For CN1CCc2cccc3c2C1Cc1ccc(O)c(O)c1-3 (stereo not given) the results were PTHR1 ag -12%, TDP-43 yeast inh 27%, aSyn rescue 8%&2%&11%, HEK293 tox -5%, KB-V1 MDR tox -17%&0%, GLP1R inv ag 17% and GLP-1R agonist -3%.
For CCOC(=O)OC(C)OC(=O)[C@@H]1N2C(=O)[C@@H](NC(=O)[C@H](N)c3ccccc3)[C@H]2SC1(C)C (stereo not given in full) the results were PTHR1 ag inactive, TDP-43 yeast inh 0%, aSyn rescue 0%, HEK293 tox 6%, KB-V1 MDR tox 10%, GLP1R inv ag -4% and GLP-1R agonist -8%.
Cc1ccc2c(c1)c1c3n2CCNC3CCC1 (stereo not given) was read as PTHR1 ag -6%&21%, TDP-43 yeast inh 1%&-2%, aSyn rescue 2%&1%, HEK293 tox 3%&26%, KB-V1 MDR tox -11%&17%, GLP1R inv ag inconclusive and GLP-1R agonist -2%&-2%.
Screening CCN1CCC[C@H]1CNC(=O)c1cc(S(N)(=O)=O)ccc1OC returned aSyn rescue -4% and GLP-1R agonist -6%.

An excerpt from above in order of length of the SMILES, largest number first.
For C[C@@H]1C[C@H]2[C@@H]3CCC4=CC(=O)C=C[C@]4(C)[C@@]3(F)[C@@H](O)C[C@]2(C)[C@@]1(O)C(=O)COP(=O)(O)O the results were PTHR1 ag -3%, TDP-43 yeast inh 11%, aSyn rescue 1%, HEK293 tox 15%, KB-V1 MDR tox 3%, GLP1R inv ag -22% and GLP-1R agonist -2%.
For COc1cc2c(c(OC)c1OC)-c1ccc(OC)c(=O)cc1[C@@H](NC(C)=O)CC2 the results were PTHR1 ag -47%, TDP-43 yeast inh 12%, aSyn rescue 0%&3%, HEK293 tox -27%, KB-V1 MDR tox 7.3µM*, GLP1R inv ag -79% and GLP-1R agonist 9%&-6%.
CN1CCN(c2c(F)cc3c(=O)c(C(=O)O)cn(CCF)c3c2F)CC1 was read as GLP-1R agonist -1%.
For CC(=O)OCC(=O)NCCCOc1cccc(CN2CCCCC2)c1 the results were PTHR1 ag inactive, TDP-43 yeast inh 15%, aSyn rescue -3%, HEK293 tox 2%, KB-V1 MDR tox 15%, GLP1R inv ag 5% and GLP-1R agonist 0%&5%.
CCN(CC)CCNC(=O)c1cc(Br)c(N)cc1OC was read as PTHR1 ag -23%, TDP-43 yeast inh 3%, aSyn rescue -1%, HEK293 tox 0%, KB-V1 MDR tox -15%, GLP1R inv ag 1% and GLP-1R agonist 1%&-3%.
For Cc1ccc2c(c1)c1c3n2CCN[C@H]3CCC1 the results were GLP-1R agonist 24%.
Cc1ccc2c(c1)c1c3n2CCNC3CCC1 (stereo not given) was read as PTHR1 ag -6%&21%, TDP-43 yeast inh 1%&-2%, aSyn rescue 2%&1%, HEK293 tox 3%&26%, KB-V1 MDR tox -11%&17%, GLP1R inv ag inconclusive and GLP-1R agonist -2%&-2%.

Next section
C[C@]12CCC(=O)C=C1CC[C@@H]1[C@@H]2C(=O)C[C@@]2(C)[C@H]1CC[C@]2(O)C(=O)CO was read as PTHR1 ag 3%, TDP-43 yeast inh inconclusive, aSyn rescue -2%&-8%, HEK293 tox 2%, KB-V1 MDR tox -1%, GLP1R inv ag 8% and GLP-1R agonist 1%.
Screening Cc1[nH]c(=O)c(C#N)cc1-c1ccc2nccn2c1 returned aSyn rescue -1% and GLP-1R agonist -4%.
`Cc1cc(NS(=O)(=O)c2ccc(N)cc2)no1` gave PTHR1 ag -19%, TDP-43 yeast inh 28%, aSyn rescue 0%, HEK293 tox -7%, KB-V1 MDR tox 19%, GLP1R inv ag 7% and GLP-1R agonist 24%&11%.
Screening CC12C=CC(=O)C=C1CCC1C2C(=O)CC2(C)C1CCC2(O)C(=O)CO (stereo not given) returned PTHR1 ag 13%, TDP-43 yeast inh 5%, aSyn rescue -2%, HEK293 tox 6%, KB-V1 MDR tox -10%, GLP1R inv ag -15% and GLP-1R agonist -1%.
For CCC(=O)OCC(=O)[C@@]1(OC(=O)CC)[C@H](C)C[C@@H]2[C@@H]3[C@H]([C@@H](O)C[C@@]21C)[C@]1(C)C=CC(=O)C=C1C[C@@H]3Cl the results were GLP-1R agonist 4%[19.8 µM].
C[C@H]1O[C@@H](O[C@H]2[C@@H](O)C[C@H](O[C@H]3[C@@H](O)C[C@H](O[C@H]4CC[C@@]5(C)[C@H](CC[C@@H]6[C@@H]5C[C@@H](O)[C@]5(C)[C@@H](C7=CC(=O)OC7)CC[C@]65O)C4)O[C@@H]3C)O[C@@H]2C)C[C@H](O)[C@@H]1O was read as PTHR1 ag -32%[inhibitor], TDP-43 yeast inh 26%, aSyn rescue 4%, HEK293 tox -41%, KB-V1 MDR tox 0.41µM*, GLP1R inv ag -84% and GLP-1R agonist -10%&-7%.
For CN(C)CCOC(c1ccccc1)c1ccccc1 the results were PTHR1 ag -1%, TDP-43 yeast inh inconclusive, aSyn rescue inconclusive, HEK293 tox 4%&3%, KB-V1 MDR tox -4%&-3%, GLP1R inv ag 4%&-6% and GLP-1R agonist 3%&-4%&-5%&16%.
CC1(C)S[C@@H]2[C@H](NC(=O)Cc3ccccc3)C(=O)N2[C@@H]1C(=O)O was read as GLP-1R agonist 3%.
Screening CCCCN(CCCC)CCC(O)c1cc2c(Cl)cc(Cl)cc2c2cc(C(F)(F)F)ccc12 (stereo not given) returned PTHR1 ag -1%, TDP-43 yeast inh -87%[inhibitor], aSyn rescue -47%[inhibitor], HEK293 tox 6%, KB-V1 MDR tox -21%, GLP1R inv ag 3% and GLP-1R agonist -2%.
NC(=O)C(c1ccccc1)(c1ccccc1)[C@@H]1CCN(CCc2ccc3c(c2)CCO3)C1 was read as GLP-1R agonist 0%.

High-throughput results (PubChem)
